Source: PubChem BioAssay
Resorufin autofl – compound fluoresces in the resorufin spectral region | Compound fluorescence, resorufin region 547/598 nm, buffer; stronger effect = higher value | max dye-equivalent concentration, M | 59,000 compounds, 0.04% hits; active = above 10 nM dye equivalent; inconclusive = 1 to 10 nM; inactive = 1 nM or less; a few of its hits are not listed in these tables; note: highest value over a series up to 38 µM
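Compounds in 100 mM Tris, pH 8.0, incubated 15 min at room temperature, then fluorescence read at 547 nm excitation/598 nm emission. Signal converted to dye-equivalent concentration via an on-plate six-point resorufin standard curve, per compound concentration.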
TSHR ag – TSH receptor (human) agonism; HEK293-CNG-TSHR cells (CNG channel as cAMP sensor), membrane potential dye, cAMP; 73,000 compounds, 0.48% hits; Potency, µM (highest dose often 57.1 µM), inactives show at the top dose activation, usual class: activators; AID 926; active = well fitted activation curve of enough size with the parental cells flat; inconclusive = any curve in the parental cells; inactive = parental cells flat and receptor cells flat or falling; note: potency is the fitted concentration of half-maximal effect; % of control where 0% means no effect; weak receptor curves with flat parental cells got no call and are not listed
Target sequence (P16473 whole entry, looked up): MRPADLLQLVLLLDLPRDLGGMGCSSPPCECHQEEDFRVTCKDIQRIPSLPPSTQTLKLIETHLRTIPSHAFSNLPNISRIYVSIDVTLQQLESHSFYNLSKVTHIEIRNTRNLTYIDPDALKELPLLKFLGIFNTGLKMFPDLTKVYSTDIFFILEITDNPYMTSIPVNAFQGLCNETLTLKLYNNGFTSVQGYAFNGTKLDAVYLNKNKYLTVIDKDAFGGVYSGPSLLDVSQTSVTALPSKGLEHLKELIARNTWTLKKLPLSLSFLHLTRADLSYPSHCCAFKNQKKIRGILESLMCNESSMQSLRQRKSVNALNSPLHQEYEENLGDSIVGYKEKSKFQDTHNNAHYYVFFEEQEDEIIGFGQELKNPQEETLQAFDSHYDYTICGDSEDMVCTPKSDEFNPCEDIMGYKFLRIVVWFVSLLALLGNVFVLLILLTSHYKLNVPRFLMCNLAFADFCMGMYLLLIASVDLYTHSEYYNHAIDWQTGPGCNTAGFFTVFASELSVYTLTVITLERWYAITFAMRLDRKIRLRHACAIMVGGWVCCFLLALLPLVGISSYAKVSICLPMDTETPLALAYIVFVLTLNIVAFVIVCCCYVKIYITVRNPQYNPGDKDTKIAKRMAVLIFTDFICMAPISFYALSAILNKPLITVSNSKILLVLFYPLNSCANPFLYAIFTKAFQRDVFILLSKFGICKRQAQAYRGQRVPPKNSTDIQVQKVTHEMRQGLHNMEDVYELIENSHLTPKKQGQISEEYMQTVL
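cAMP rise detected as CNG-channel membrane depolarization by fluorescent dye (emission 590 nm), 30 min after compound, following 60 min dye loading containing 100 uM RO 20-1724 at room temperature. Cells: TSHR/CNG HEK 293, with parental CNG HEK 293 as control.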
A488 fluor – compound fluoresces in the A488 spectral region. compound autofluorescence, A488 spectral region, dye equivalency; stronger effect = higher value. max dye equivalency, M. 59,000 compounds, 0.1% hits; active = above 10 nM dye equivalent; inconclusive = 1 to 10 nM; inactive = 1 nM or less; about half of its hits are not listed in these tables;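 note: highest value over a series up to 38 µM; compound alone in buffer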
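Compound autofluorescence was read in 100 mM Tris pH 8.0 after 15 min at room temperature, ex 480 nm/em 540 nm. Intensities were converted to A488 dye-equivalent concentration using an on-plate six-point A488 standard curve.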
A647 autofl – compound fluoresces in the A647 spectral region; max dye-equivalent concentration, M; AID 592; 59,000 tested, under 10 active; Compound fluorescence, A647 channel (570/671 nm), Tris buffer; active means above 1 µM dye equivalent; inconclusive means 0.1 to 1 µM; inactive means 0.1 µM or less;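 note: values scaled relative to a standard on each plate; highest value over a series up to 38 µM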
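Tris 100 mM pH 8.0; cpd + A647 stds pin-transferred; 15 min RT; CCD imager, ex 570/em 671. Output = A647-equivalent conc. per cpd conc.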
AID923 – qHTS Assay for Allosteric/Competitive Inhibitors of Caspase-1: Spectroscopic Profiling in AFC Spectral Region. compound fluorescence, AFC spectral region (405/520 nm); almost no hit is shown here. Potency, µM (top dose mostly 57.5 µM), without a hit: top-dose fluorescence increase, hits mostly activators. 75,000 compounds, 1.1% hits; active = well fitted activation curve with a large enough effect; inconclusive = small, poorly fitted or top-dose-only effect;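 note: potency is the fitted concentration of half-maximal effect; 0% is about no effect; scaled to a free AFC standard on each plate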
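Compound autofluorescence profiled at 405 nm ex/520 nm em during kinetic caspase 1 run (50 nM enzyme, 5 uM Ac-WEHD-AFC, HEPES pH 7.5, 10 mM DTT). Titration up to 57 uM; baseline from regression intercept, normalized to AFC standard curve.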
* marks the source's active call; other numbers are inactive results; i = inactive; u = inconclusive; x = no result given; [ ] = remark or other dose. This is a subset, so the mix of outcomes need not match the whole.

SMILES	Resorufin autofl	TSHR ag	A488 fluor	A647 autofl	AID923
O=C1c2cccc3cccc(c23)C(=O)N1c1nccs1	x	-5%	x	x	3.3%
COc1ccc(CCNc2oc(Cc3ccccc3)nc2C#N)cc1OC	i	u	i	2.1e-08	-1.0%
CCCSc1nnc2[nH]c(=O)cc(N)n12	i	3%	i	4.9e-09	-2.2%
CS(=O)(=O)Nc1cccc(-c2nccc(NCc3cccs3)n2)c1	i	7%	i	2.1e-08	2.0%
c1cn2cc(CN3CCOCC3)nc2s1	i	-9%	i	1e-09	-2.2%
C/C(=C\C(=O)c1ccc(C)o1)Nc1ccc2c(c1)OCO2	i	u	i	1e-09	1.1%
O=C(CSc1nnc(-c2ccccn2)n1Cc1ccco1)c1ccc(-c2ccccc2)cc1	i	u	i	1.7e-08	1.4%
O=C(CCCCCn1c(=O)[nH]c2ccccc2c1=O)NCCCN1CCN(c2ccccc2F)CC1	i	-6%	i	3.9e-08	2.1%
CCOc1ccc(N2C(=O)c3cccnc3C2Nc2ccc(OC)cc2)cc1 (centres undefined)	i	x	i	1.8e-08	0.1%
COc1ccc(-n2c(=O)c3ccccc3n(CC(=O)NC3CCCC3)c2=O)c(OC)c1	i	7%	i	2.9e-09	0.5%
COc1ccc(NC(=O)c2oc3ccccc3c2NC(=O)c2ccco2)cc1	i	x	i	1e-09	8.2%
O=c1oc2ccccc2cc1C1=Nn2c(nnc2-c2cccnc2)SC1	i	24%	i	1e-09	0.9%
COc1ccc(CN(C(=O)c2ccccc2OC)C2CCS(=O)(=O)C2)cc1 (centres undefined)	i	x	i	8e-09	-1.8%
CCn1c(SCC(=O)c2ccc(Cl)s2)nnc1-c1cccs1	i	16%	i	1.8e-08	0.3%
CCCC(=O)Nc1ccc(N2CCCCC2)cc1	x	1%	x	x	3.1%
O=C1NC(=O)C2(COC3(CCCC3)OC2)S1	i	2%	i	9.7e-09	0.7%
N[C@@H](CSC(=O)c1ccccc1)C(=O)O	i	1%[11.4 µM]	i	3.1e-09	1.8%[11.5 µM]
Cc1onc(-c2ccccc2)c1C(=O)Nc1ccc2c(c1)OCCO2	x	3%	x	x	0.8%
COc1ccccc1CN1CC[C@@]2(CCCN(C(=O)c3ccco3)C2)C1	i	u	i	1e-09	1.6%
N#Cc1c2c(c(-c3ccccc3)[nH]c1=O)CCCC2	i	x	i	5.5e-08	x

Part of the list above, with two lines to a compound:
Every second line gives: Resorufin autofl	TSHR ag	A488 fluor	A647 autofl	AID923
- O=C(CSc1nnc(-c2ccccn2)n1Cc1ccco1)c1ccc(-c2ccccc2)cc1
  i	u	i	1.7e-08	1.4%
- O=C(CCCCCn1c(=O)[nH]c2ccccc2c1=O)NCCCN1CCN(c2ccccc2F)CC1
  i	-6%	i	3.9e-08	2.1%
- CCOc1ccc(N2C(=O)c3cccnc3C2Nc2ccc(OC)cc2)cc1 (centres undefined)
  i	x	i	1.8e-08	0.1%

Following part.
SMILES	Resorufin autofl	TSHR ag	A488 fluor	A647 autofl	AID923
O=C(NC1CC2CCCC(C1)N2S(=O)(=O)c1ccccc1)c1ccccc1 (centres undefined)	i	7%	i	8.2e-09	1.2%
COc1cccc2c1C(=O)c1c(O)c3c(c(O)c1C2=O)C[C@@](O)(C(=O)CO)C[C@@H]3O[C@H]1C[C@H](N)[C@H](O)[C@H](C)O1	7.6e-08M*	0%	1.3e-08M*	4.6e-09	0.1%
Cc1cc(NC(=O)CSc2nccn2-c2ccc(Cl)cc2)no1	i	3%	i	1.5e-08	0.7%
CCCC(C)n1[nH]c(=O)cc1N (centres undefined)	i	x	i	5.4e-09	x
CCOC(=O)c1sc(NC(=O)CCSC)nc1C	x	1%	x	x	0.1%
CN(C#N)c1nc(N2CCOCC2)nc(N2CCOCC2)n1	i	3%[11.4 µM]	i	1e-09	0.0%
O=C(NCCCN1CCC(Cc2ccccc2)CC1)C1CC(=O)N(C2CCCC2)C1 (centres undefined)	x	7%	x	x	3.8%
O=C(Nc1ccc(Cl)cc1)c1ccc2c(c1)OCO2	i	15%	i	1.9e-08	3.2%
CCCc1[nH]nc2c1C(c1ccc(OC(=O)N3CCOCC3)c(OC)c1)C(C#N)=C(N)O2 (centres undefined)	i	1%	i	3.1e-09	-2.6%
CCn1c(SCc2nc3ccccc3nc2C)nnc1-c1cccs1	i	u	i	4.5e-08	0.6%
O=C(COC(=O)C12CC3CC(CC(O)(C3)C1)C2)N1CCN(S(=O)(=O)c2ccc(Cl)cc2)CC1	i	-5%	i	1e-09	-1.2%
c1ccc(-c2ccc(N3CC4(CCNCC4)C3)cc2)cc1	i	u	i	9.6e-09	1.0%
CCOC(=O)c1c(C)n(C)c2ccc(OCC(O)Cn3nc(C)cc3C)cc12 (centres undefined)	i	8%	i	1.5e-08	-1.3%
Cc1ccc(NC(=O)NC(=O)N(c2ccccc2)S(C)(=O)=O)cc1	i	-6%[11.4 µM]	i	2.9e-08	-1.5%
COC(=O)C1CCN(C(=O)CN2C(=O)NC(CCc3ccccc3)C2=O)CC1 (centres undefined)	i	u	i	1e-09	-0.7%
CCOc1cc(C(=O)Nc2cnccn2)cc(OCC)c1OCC	i	u	i	1e-09	-0.7%
COC(=O)CCC(=O)Nc1ccc(OC)cc1	x	10%[11.4 µM]	x	x	-2.4%
O=C(NC1CC1)c1ccc(-c2nc3ccccc3s2)s1	i	4%	i	2.6e-08	0.8%
CSc1ccc(-c2c(C#N)c(N)nc3c2c(C)nn3-c2ccccc2)cc1	i	9%	i	8.5e-09	18%
CC(=O)c1cccc(-n2c(CCC(=O)O)ccc2-c2cccs2)c1	i	11%	i	1e-09	-2.0%

Whole records from above:
O=C(NCCCN1CCC(Cc2ccccc2)CC1)C1CC(=O)N(C2CCCC2)C1 (centres undefined) across the screens: Resorufin autofl: x; TSHR ag: 7%; A488 fluor: x; A647 autofl: x; AID923: 3.8%
CCn1c(SCc2nc3ccccc3nc2C)nnc1-c1cccs1 across the screens: Resorufin autofl: i; TSHR ag: u; A488 fluor: i; A647 autofl: 4.5e-08; AID923: 0.6%
COC(=O)C1CCN(C(=O)CN2C(=O)NC(CCc3ccccc3)C2=O)CC1 (centres undefined) across the screens: Resorufin autofl: i; TSHR ag: u; A488 fluor: i; A647 autofl: 1e-09; AID923: -0.7%

The list goes on.
SMILES	Resorufin autofl	TSHR ag	A488 fluor	A647 autofl	AID923
CCOC(=O)C(C(=O)Nc1ccccc1)C1CCCCC1 (centres undefined)	x	u	x	x	1.4%
CC(=O)Oc1ccccc1C1OCCN1C(C)=O (centres undefined)	i	x	i	1.3e-09	x
Cn1c(=O)c2c(nc(CN3CCOCC3)n2CCCc2ccccc2)n(C)c1=O	i	3%	i	1e-09	1.1%
O=C1C2C3C=CC(C3)C2C(=O)N1Cc1cccnc1 (centres undefined)	i	0%	i	1.9e-09	-1.0%
CCCn1c(=O)c2ccccc2n2c(SCc3c(C(=O)OCC)oc4ccccc34)nnc12	i	u	i	4e-08	-1.3%
COc1ccccc1-c1cc(NCc2cccs2)ncn1	i	u	i	6.5e-09	1.1%
OCCOCCNc1ncnc2c1cnn2-c1ccccc1	i	x	i	1.9e-08	x
COc1ccc(CC(NC(C)=O)C(=O)NC2CCN(C(=O)NCc3ccccc3)CC2)cc1 (centres undefined)	i	u	i	2.7e-08	0.1%
COc1ccc2nc(NCc3ccccc3)[nH]c2c1	i	-2%	i	1e-09	-2.3%
CC(C)(C)SCCNS(=O)(=O)c1ccccc1	x	20%	x	x	0.2%
O=C(O)c1[nH]c(=O)[nH]c(=O)c1CN1CCCCC1	i	4%[11.4 µM]	i	3e-08	0.7%[11.5 µM]
Cc1ccc(S(=O)(=O)NCC(=O)N(CC(=O)NCC2CCCO2)Cc2ccccc2)cc1 (centres undefined)	i	0%	i	1e-08	-0.4%
Cc1ccc2nc(Nc3ncc4c(n3)CCCC4=O)nc(C)c2c1	i	3%	i	4.3e-09	-0.1%
COc1ccc2cc(C(c3nnnn3CCc3ccccc3)N3CCCC(C)C3)c(=O)[nH]c2c1 (centres undefined)	i	6%	i	3e-09	0.2%
COc1ccccc1NC(=O)NC1(C(=O)N2CCC(O)CC2)CCCCC1	i	0%	i	8e-09	-0.2%
Cc1ccccc1NC(=O)c1cccc2nccnc12	i	-6%	i	1.4e-08	2.0%
COc1cccc(OC)c1C(=O)Nc1nnc(C(C)C)s1	x	12%[11.4 µM]	x	x	-1.2%
COC(=O)c1cccc(S(=O)(=O)N2CCCCC2)c1	x	10%	x	x	2.6%
O=C(CCCn1c(=S)[nH]c2cc3c(cc2c1=O)OCO3)N1CCN(c2ccccn2)CC1	i	6%	i	1e-09	0.5%
Cc1ccc(Cn2cnc3c(nnn3Cc3ccc(Cl)cc3)c2=O)cc1	i	u	i	1.5e-09	0.8%
O=C(CSc1nnc(-c2ccncc2)n1-c1ccc(Cl)cc1)N1CCOCC1	i	-1%	i	7.7e-09	-0.3%
Cc1c(NC(=O)c2ccc(Br)o2)c(=O)n(-c2ccccc2)n1C	x	7%[11.4 µM]	x	x	0.1%
COc1ccc2[nH]cc(CCNc3cc(-c4ccc(C(=O)N(C)C)cc4)ncn3)c2c1	i	0%	i	2.4e-09	5.3%
C=CCOc1cccc(C2C(C(=O)c3ccco3)=C(O)C(=O)N2CCN(CC)CC)c1 (centres undefined)	i	2%	i	2.2e-09	0.0%
O=C(Cn1cc2c(n1)CCCC2)NCC1CCCO1 (centres undefined)	x	0%	x	x	2.1%
CCN(CC)CCCC(C)Nc1nc(C)cc(Nc2ccc3nc(C)cc(N)c3c2)n1 (centres undefined)	x	-3%	x	x	1.1%
Cc1ccccc1-c1nc(N(C)Cc2ccco2)c2ccccc2n1	i	u	i	1e-09	1.3%
Cc1ccccc1C1CC(c2ccccc2OC(F)F)Nc2ncnn21 (centres undefined)	i	10%	i	1.9e-08	0.5%
O=C(CCS(=O)(=O)c1cccc2nsnc12)NCc1ccccc1	i	-2%	i	1e-09	-0.3%
CC(C)N1CC(C(=O)Nc2ccc(Br)c(Cl)c2)CC1=O (centres undefined)	i	1%	i	2.5e-08	1.8%
COc1ccc(C2C(C(=O)c3cc4cccc(OC)c4o3)=C(O)C(=O)N2CCCN(C)C)cc1OC (centres undefined)	i	-6%	i	8.7e-09	-0.6%
Cc1cc(NC(=O)CSc2nc(-c3ccco3)cc(C(F)(F)F)n2)no1	i	15%	i	1e-09	-0.1%
Cc1c(Cc2ccccc2)c(=O)oc2cc(OCc3nn[nH]n3)ccc12	i	20%	i	1.8e-08	-0.2%
C=C(C)CC1N(c2cccc(OC)c2)C(=O)[C@@H]2C(C(=O)O)[C@H]3C=C[C@@]12O3 (some centres undefined)	i	x	i	2.4e-09	x
COC(=O)N1CCN(c2ccc(Cl)c(Cl)c2)CC1	i	8%	i	9.6e-09	1.2%
Cc1nc2ccccc2c2oc(C(=O)NCc3ccccn3)cc12	i	2%	i	9.4e-09	-0.6%
CCc1nnc(NC(=O)CSc2nnc(CNc3ccc(F)cc3)n2C2CCCCC2)s1	i	-1%	i	7.5e-09	-0.3%
COc1ccc2c(Cc3c4ccccc4cc4ccccc34)cncc2c1O	i	0%[11.4 µM]	i	4.2e-08	18%[11.5 µM]
c1ccc2c(c1)nc1n2CN(Cc2ccc3c(c2)OCO3)CN1	i	11%	i	1.4e-08	2.0%
CC(=O)c1c(C)n(-c2ccc(N(C)C)cc2)c2ccc(OCC(N)=O)cc12	i	u	i	1e-09	-0.2%
COc1ccc(OCC(=O)N2CC3(C)CC2CC(C)(C)C3)cc1 (centres undefined)	x	u	x	x	-0.4%
